Screening data deposited in PubChem BioAssay by Broad Institute.
Vaccinia inh: blocks a specific stage of Vaccinia orthopoxvirus infection | Vaccinia-infected cells, mCherry/Venus stage reporter fluorescence; hits give low values; some inactives read as strong as hits | activity change (mCherry), % (concentration not given with the values) | 89,000 tested, 0.01% active;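 active means mCherry past -33% and 40 or more points under the early reporter, replicates agreeing; inconclusive means past -33% without that gap or agreement; tested in A549 cells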;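 further: scaled between vehicle wells and reference inhibitor wells; 23 nL library stock went into each well; one replicate is shown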
Vaccinia inh Venus: also measured in Vaccinia inh; calls as there; activity change (Venus), %; measured here: Venus reporter, other viral stage;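 negative = less Venus signal; first of two replicates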
* hit, by the source's call; ? = inconclusive; / = no result given; & = joins results of further samples. These rows are one share of the data; the hit share may differ from the screen's.

SMILES | Vaccinia inh | Vaccinia inh Venus
O=C(C[C@@H]1CC[C@H](NC(=O)c2ccccn2)[C@@H](CO)O1)NCc1cc(F)cc(F)c1 | 5 | 2
C[C@H](CO)N1C[C@H](C)[C@H](CN(C)S(=O)(=O)c2cn(C)cn2)Oc2cc(C#Cc3ccc(F)cc3)ccc2S1(=O)=O | ? | /
COc1ccc2c3c([nH]c2c1)[C@H](CO)N(C(=O)c1ccc(F)cc1)CC31CN(C(=O)NC(C)C)C1 | 19 | 17
C[C@@H]1CN([C@H](C)CO)C(=O)c2cccc(NC(=O)Nc3ccc(C(F)(F)F)cc3)c2O[C@H]1CN(C)C(=O)Nc1cccc2ccccc12 | ? | /
COC(=O)[C@@H]1[C@@H](CO)[C@@H]2Cn3c(ccc(-c4cccnc4)c3=O)[C@H]1N2S(=O)(=O)c1ccccc1F | 6 | 6
O=C(C[C@H]1C=C[C@@H](NS(=O)(=O)c2ccccc2)[C@H](CO)O1)N1CCN(c2ccccc2)CC1 | 12 | 8
C[C@H]1CN([C@@H](C)CO)C(=O)Cc2cc(NC(=O)Cn3cnnn3)ccc2O[C@H]1CN(C)Cc1ccc(C(=O)Nc2ccccc2N)cc1 | 37 | 18
O=C(C[C@@H]1C=C[C@H](NC(=O)C2CCC2)[C@H](CO)O1)NCCCN1CCOCC1 | -2 | -6
C[C@@H]1CCCCO[C@@H](CN(C)C(=O)CCC(F)(F)F)[C@@H](C)CN([C@@H](C)CO)C(=O)c2cc(NC(=O)c3ccccc3)ccc2O1 | -13 | -10
CC(C)NC(=O)N(C)C[C@@H]1Oc2ccc(NS(=O)(=O)c3ccccc3)cc2C(=O)N([C@H](C)CO)C[C@@H]1C | 18 | 11
COc1ccc(NC(=O)N(C)C[C@@H]2Oc3c(NC(=O)c4nc5ccccc5s4)cccc3C(=O)N([C@@H](C)CO)C[C@@H]2C)cc1 | -14 | -1
C[C@H](O)C#Cc1ccc2c(c1)O[C@H](CN(C)Cc1cncnc1)[C@@H](C)CN([C@@H](C)CO)S2(=O)=O | 2 | -3
C/C=C/c1ccc2c(c1)O[C@H](CN(C)S(C)(=O)=O)[C@@H](C)CN([C@@H](C)CO)S2(=O)=O | 0 | -1
COc1cccc(S(=O)(=O)N(C)C[C@@H]2OCc3ccccc3-c3ccccc3C(=O)N([C@@H](C)CO)C[C@H]2C)c1 | -27 | -19
CC=Cc1ccc2n(c1=O)C[C@H]1[C@H](CO)[C@@H](C(=O)NC3CCC3)N(C(=O)C3CCC3)[C@@H]21 (mixture of isomers) | 9 | 8
O=C(NCc1ccncn1)[C@@H]1[C@@H](CO)[C@@H]2Cn3c(ccc(-c4ccccc4)c3=O)[C@@H]2N1CC1CC1 | 5 | 2
C[C@@H]1CN([C@@H](C)CO)C(=O)c2cc(-c3ccc(C#N)cc3)cnc2O[C@H]1CN(C)Cc1cccnc1 | 15 | 15
C[C@@H]1CN([C@@H](C)CO)S(=O)(=O)c2ccc(/C=C/c3ccccc3)cc2O[C@@H]1CN(C)C | -21 | -22
C[C@@H]1CN([C@@H](C)CO)C(=O)c2cc(C#CC(C)(C)O)cnc2O[C@H]1CN(C)Cc1ccccn1 | -6 | -2
O=C(C[C@@H]1CC[C@@H](NC(=O)C2CCOCC2)[C@H](CO)O1)NCc1ccncc1 | 0 | -2
C[C@@H]1CN([C@H](C)CO)S(=O)(=O)c2ccc(C#Cc3cccc(F)c3)cc2O[C@H]1CN(C)C(=O)NC1CCCCC1 | ? | /
COC(=O)C[C@@H]1CC[C@H]2[C@@H](COc3ccc(NC(=O)Nc4cc(C)cc(C)c4)cc3C(=O)N2C)O1 | 4 | -4
CC(C)NC(=O)N(C)C[C@@H]1OCCCC[C@@H](C)Oc2ccc(NC(=O)C3CCCCC3)cc2C(=O)N([C@H](C)CO)C[C@@H]1C | 23 | 11
CC(C)NC(=O)N(C)C[C@@H]1Oc2ccc(NS(C)(=O)=O)cc2CC(=O)N([C@@H](C)CO)C[C@H]1C | 20 | 7
CO[C@H]1CN(C)C(=O)c2ccc(NC(=O)c3ccccc3F)cc2OC[C@@H](C)N(C(C)=O)C[C@H]1C | 10 | 15

Shown as labelled records: 4 of the compounds above
> C[C@H]1CN([C@@H](C)CO)C(=O)Cc2cc(NC(=O)Cn3cnnn3)ccc2O[C@H]1CN(C)Cc1ccc(C(=O)Nc2ccccc2N)cc1
  Vaccinia inh = 37 | Vaccinia inh Venus = 18
> O=C(C[C@@H]1C=C[C@H](NC(=O)C2CCC2)[C@H](CO)O1)NCCCN1CCOCC1
  Vaccinia inh = -2 | Vaccinia inh Venus = -6
> C[C@@H]1CCCCO[C@@H](CN(C)C(=O)CCC(F)(F)F)[C@@H](C)CN([C@@H](C)CO)C(=O)c2cc(NC(=O)c3ccccc3)ccc2O1
  Vaccinia inh = -13 | Vaccinia inh Venus = -10
> CC(C)NC(=O)N(C)C[C@@H]1Oc2ccc(NS(=O)(=O)c3ccccc3)cc2C(=O)N([C@H](C)CO)C[C@@H]1C
  Vaccinia inh = 18 | Vaccinia inh Venus = 11

Two of the compounds above, with values under each structure:
Order of values: Vaccinia inh | Vaccinia inh Venus
C[C@H]1CN([C@@H](C)CO)C(=O)Cc2cc(NC(=O)Cn3cnnn3)ccc2O[C@H]1CN(C)Cc1ccc(C(=O)Nc2ccccc2N)cc1
 : 37 | 18
CC=Cc1ccc2n(c1=O)C[C@H]1[C@H](CO)[C@@H](C(=O)NC3CCC3)N(C(=O)C3CCC3)[C@@H]21 (mixture of isomers)
 : 9 | 8

Further entries:
SMILES | Vaccinia inh | Vaccinia inh Venus
CN1C(=O)c2cc(NC(=O)c3cccc(C(F)(F)F)c3)ccc2OC[C@H]2O[C@H](CC(=O)O)CC[C@H]21 | 8 | 2
O=C(C[C@H]1C[C@H]2c3cc(NC(=O)C4CCC4)ccc3O[C@H]2[C@H](CO)O1)NCc1ccc2c(c1)OCO2 | 13 | 11
C[C@H]1CCCCO[C@@H](CN(C)Cc2ccc(C(=O)O)cc2)[C@@H](C)CN([C@@H](C)CO)C(=O)c2cc(NC(=O)Nc3ccc4c(c3)OCO4)ccc2O1 | 11 | 13
C[C@@H]1CN([C@@H](C)CO)C(=O)c2cc(NS(=O)(=O)c3cn(C)cn3)ccc2O[C@@H]1CN(C)S(C)(=O)=O | 6 | 7
C[C@@H]1CCCCO[C@@H](CN(C)S(=O)(=O)c2ccc(F)cc2)[C@H](C)CN([C@@H](C)CO)C(=O)c2cc(NC(=O)c3ccncc3)ccc2O1 | -19 | -21
C[C@@H]1CN([C@@H](C)CO)S(=O)(=O)c2ccc(-c3ccccc3)cc2O[C@H]1CN(C)Cc1cncnc1 | -11 | -19
Cc1cc(C(=O)Nc2ccc3c(c2)C(=O)N(C)[C@H]2CC[C@@H](CC(=O)NC4CCCC4)O[C@H]2CO3)no1 | -7 | 2
CO[C@@H](CN(C)C(=O)c1ccc2c(c1)OCO2)[C@H](C)CN([C@@H](C)CO)S(=O)(=O)c1ccccc1 | 10 | 11
C[C@H]1CCCCO[C@H](CN(C)C(=O)Nc2ccc(C(F)(F)F)cc2)[C@@H](C)CN([C@@H](C)CO)C(=O)c2cc(N(C)C)ccc2O1 | -13 | -7
CCCNC(=O)Nc1ccc2c(c1)OC[C@H](C)N(Cc1ccccn1)C[C@H](C)[C@@H](OC)CN(C)C2=O | 9 | 7
CN1C[C@@H]2[C@H](c3ccccc31)[C@@H](CO)N2C(=O)C1CC1 | -3 | 9
CCO[C@H]1OC(C(=O)NC2CC2)=C[C@@H](C2CCCCC2)[C@@H]1CCCO | 1 | 3
O=C(c1ccc2c(c1)OCO2)N1CC2(C1)[C@@H](c1ccccc1)[C@@H](CO)N2C(=O)C1CCCC1 | 3 | 5
Cc1cccc(S(=O)(=O)N(C)C[C@@H]2OCc3ccccc3-c3c(n(C)c4ccccc34)C(=O)N([C@@H](C)CO)C[C@@H]2C)c1 | ? | /
Cc1noc(C)c1NC(=O)Nc1ccc2c(c1)C(=O)N([C@@H](C)CO)C[C@H](C)[C@H](CN(C)Cc1ccccc1)OCCCC[C@H](C)O2 | 15 | 1
COCC(=O)N1C[C@H](C)[C@@H](OC)CN(C)C(=O)c2ccc(NC(=O)Nc3ccccc3)cc2OC[C@H]1C | 28 | 14
C[C@H]1CN([C@@H](C)CO)C(=O)c2cc(C3=CCCCC3)cnc2O[C@@H]1CN(C)C(=O)NC1CCCC1 | -24 | -14
Cc1ccc(S(=O)(=O)Nc2ccc3c(c2)C(=O)N([C@H](C)CO)C[C@@H](C)[C@@H](CN(C)S(=O)(=O)c2ccc(F)cc2)OCCCC[C@@H](C)O3)cc1 | -31 | -17
C[C@@H]1CN([C@@H](C)CO)C(=O)Cc2cc(NC(=O)CCC(F)(F)F)ccc2O[C@H]1CN(C)Cc1ccc2c(c1)OCO2 | -32 | -21
O=C(N[C@@H]1CC[C@@H](CCn2cc(C3(O)CCCC3)nn2)O[C@@H]1CO)C1CCC1 | 1 | 2
CN1CCCCN2[C@@H](CO)[C@H](c3ccc(C#Cc4ccccc4F)cc3)[C@@H]2C1 | ? | /
COc1ccc(S(=O)(=O)Nc2ccc3c(c2)[C@H]2C[C@@H](CC(=O)N(C)C)O[C@@H](CO)[C@H]2O3)cc1 | 8 | 5
Cn1cnc(S(=O)(=O)N2CCCCN3[C@H](C2)[C@H](c2ccc(-c4ccccc4)cc2)[C@@H]3CO)c1 | ? | /
O=C(C[C@H]1CC[C@@H](NC(=O)Nc2cc(F)ccc2F)[C@H](CO)O1)Nc1ccc(-c2ccccc2)cc1 | ? | /
O=C(Nc1ccc(Cl)cc1)N1[C@@H]2CNC[C@H]1C2c1ccc(-c2ccccc2)cc1 (stereo partly drawn) | -9&6 | -10&8

Additional records:
SMILES | Vaccinia inh | Vaccinia inh Venus
C[C@@H]1CN([C@@H](C)CO)C(=O)c2cc(N(C)C)ccc2O[C@@H]1CN(C)C(=O)Nc1ccccc1 | 20 | 10
Cc1ccc(S(=O)(=O)N(C)C[C@H]2OCCCC[C@@H](C)Oc3ccc(NC(=O)CCCN(C)C)cc3C(=O)N([C@@H](C)CO)C[C@H]2C)cc1 | -14 | -19
C[C@@H](O)C#Cc1ccc2c(c1)O[C@H](CN(C)C(=O)Cc1ccccn1)[C@@H](C)CN([C@@H](C)CO)S2(=O)=O | 7 | 7
CO[C@H]1CN(C)C(=O)c2cc(NC(=O)Nc3c(C)noc3C)ccc2OC[C@@H](C)N(CC2CC2)C[C@@H]1C | 9 | 12
O=C(C[C@@H]1C=C[C@H](NC(=O)Nc2ccc3c(c2)OCO3)[C@@H](CO)O1)NCc1ccccc1 | 5 | 10
Cc1ccccc1S(=O)(=O)N1CC[C@@H]2[C@@H](CO)Nc3ccc(-c4ccccc4)cc3[C@@H]21 | -32 | -24
Cc1noc(C)c1NC(=O)N(C)C[C@@H]1OCCCC[C@H](C)Oc2ccc(NC(=O)Nc3ccc4c(c3)OCO4)cc2C(=O)N([C@H](C)CO)C[C@@H]1C | 13 | 3
COc1ccc2c3c([nH]c2c1)[C@H](CO)N(C(=O)C1CC1)CC31CN(Cc2nccs2)C1 | -1 | -2
CO[C@H]1CN(C)C(=O)c2ccc(NC(=O)c3cc(C)on3)cc2OC[C@@H](C)N(CC2CC2)C[C@H]1C | 7 | 10
CCCC(=O)Nc1ccc2c(c1)OC[C@H](C)N(CCC)C[C@H](C)[C@H](OC)CN(C)C2=O | 11 | 10
C[C@@H]1CN([C@H](C)CO)C(=O)c2cc(C#CC3CC3)cnc2O[C@@H]1CN(C)S(=O)(=O)c1cccc(F)c1 | 1 | -7
COc1ccc(S(=O)(=O)N(C)C[C@@H]2Oc3c(NC(=O)c4ccc(-c5nccs5)cc4)cccc3C(=O)N([C@@H](C)CO)C[C@@H]2C)cc1 | 7 | 6
C[C@@H]1CN([C@H](C)CO)C(=O)c2cc(NS(C)(=O)=O)ccc2O[C@@H](C)CCCCO[C@H]1CN(C)C(=O)Nc1ccccc1 | 14 | 15
C[C@H](CO)N1C[C@H](C)[C@@H](CN(C)CC2CCOCC2)Oc2ncc(C#Cc3ccncc3)cc2C1=O | 15 | 10
O=C(Nc1cc(F)ccc1F)N1CC(=O)N2[C@H](CO)[C@@H](c3ccc(-c4ccc(F)cc4)cc3)[C@@H]2C1 | -26 | -24
C[C@H]1CN([C@@H](C)CO)C(=O)c2cc(-c3ccc(F)cc3)cnc2O[C@H]1CN(C)Cc1ccc(C(=O)O)cc1 | 12 | 6
CNC[C@H]1OCCCC[C@@H](C)Oc2ccc(NC(=O)CCC(F)(F)F)cc2C(=O)N([C@H](C)CO)C[C@@H]1C | 7 | 8
C[C@@H]1CN([C@H](C)CO)C(=O)c2cc(NC(=O)Cc3ccccc3)ccc2O[C@@H]1CN(C)C(=O)Nc1ccccc1 | 1 | 5
C[C@@H]1CN([C@@H](C)CO)C(=O)Cc2cc(NC(=O)CCCCCC(=O)Nc3ccccc3N)ccc2O[C@@H]1CN(C)S(=O)(=O)c1ccc(F)cc1 | 11 | 4
O=C(C[C@@H]1C[C@@H]2c3cc(NC(=O)C4CCC4)ccc3O[C@@H]2[C@H](CO)O1)NC1CCCC1 | 8 | 3
CNC[C@H]1Oc2ccc(N(C)C)cc2C(=O)N([C@H](C)CO)C[C@@H]1C | 0 | -2
Cc1noc(C)c1S(=O)(=O)Nc1ccc2c(c1)CC(=O)N([C@H](C)CO)C[C@H](C)[C@@H](CN(C)Cc1ccc(C(=O)Nc3ccccc3N)cc1)O2 | 17 | -2

Filtered by structure: those above containing an NH in an aromatic ring (2)
SMILES | Vaccinia inh | Vaccinia inh Venus
COc1ccc2c3c([nH]c2c1)[C@H](CO)N(C(=O)c1ccc(F)cc1)CC31CN(C(=O)NC(C)C)C1 | 19 | 17
COc1ccc2c3c([nH]c2c1)[C@H](CO)N(C(=O)C1CC1)CC31CN(Cc2nccs2)C1 | -1 | -2
